Assay outcomes as filed in PubChem.
MARV entry inh: Marburg virus entry inhibition | actives 1.8% (n = 300,000) | AID 540276 | Potency, µM (top dose mostly 37.8 µM), for inactives: top-dose activity change, negative = inhibition, actives largely listed as inhibitors | Marburg virus pseudotyped entry inhibition, cell reporter; control for the full effect not named in the record; about a third of the inactives were read at about 46 µM; active = well fitted inhibition curve with a large enough effect; inconclusive = small, poorly fitted or top-dose-only effect, or effect the other way; inactive = flat fitted curve, though single readings scatter; tested in HEK293 cells; about a fifth of its hits are not listed in these tables; also: % is scaled to controls: 0 for no effect and ±100 for the full control effect; luciferase read-out
Cruzain inh Det: cruzain (T. cruzi) inhibition with detergent | P25779 | purified cruzain, Z-FR-AMC fluorescence, 0.01% Triton | Potency, µM, for the others: max response, negative = inhibition, hits mostly inhibitors | actives 0.43% (n = 200,000) | AID 1478;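 also: plate controls were neutral wells for no effect and buffer without enzyme for full effect; nearly all actives have a fitted effect of over 40% in size; top concentration of the series not given in the record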
Target sequence (P25779 123-467 limits assumed): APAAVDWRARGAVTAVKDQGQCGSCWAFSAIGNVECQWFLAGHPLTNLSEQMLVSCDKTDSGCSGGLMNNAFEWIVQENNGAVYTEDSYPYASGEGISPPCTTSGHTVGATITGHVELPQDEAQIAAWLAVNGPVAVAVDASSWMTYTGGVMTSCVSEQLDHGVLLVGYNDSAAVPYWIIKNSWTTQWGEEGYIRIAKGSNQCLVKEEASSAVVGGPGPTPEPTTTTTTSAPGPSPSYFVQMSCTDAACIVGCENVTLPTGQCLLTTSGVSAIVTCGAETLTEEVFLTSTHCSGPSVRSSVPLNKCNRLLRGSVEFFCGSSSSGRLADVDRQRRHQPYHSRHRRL
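Sodium acetate buffer (100 mM, pH 5.5) containing 5 mM DTT and 0.01% Triton X-100 hosted 1.5 nM cruzain and test compound for 15 min at room temperature. Cleavage of 2 uM Z-FR-AMC was then tracked by fluorescence.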
SARS PLP yeast: SARS-CoV PLP inhibition in yeast. S. cerevisiae expressing SARS-CoV PLpro, growth rescue; control for the full effect not named in the record. actives 0.19% (n = 330,000). AID 485353. Potency, µM (top dose mostly 32.9 µM), for inactives: at the highest dose activity, positive = growth rescue; active means well fitted rising curve with a large enough effect; inconclusive means small, poorly fitted or top-dose-only effect; inactive means no such curve, though single readings can be large or run the other way; also: 0% is about no effect; nearly all actives have a fitted effect of over 55% in size; growth read by luminescence after 48 h
NS1 function inh: blocks influenza NS1 protein function | actives 0.4% (n = 270,000) | S. cerevisiae slowed by influenza A NS1, growth recovery by OD600 | Potency, µM (series often up to 46.1 µM), without a hit: at the top dose activity, positive = more growth; active means well fitted rising curve with a large enough effect; inconclusive means small, poorly fitted or top-dose-only effect; inactive means no such curve, though single readings can be large or run the other way; also: nearly all actives have a fitted effect of over 50% in size
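Growth recovery, yeast-based: influenza A NS1 expressed in S. cerevisiae causes slow growth, and suppressors are detected by OD600. The parent strain without NS1 is used as positive control.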
Cruzain noTriton: cruzain (T. cruzi) inhibition without detergent. P25779. purified cruzain, Z-FR-AMC fluorescence, no detergent. Potency, µM, for inactives: max response, negative = inhibition, usual class: inhibitors. actives 2.3% (n = 200,000);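 also: plate controls were enzyme without inhibitor for no effect and buffer without enzyme for full effect; nearly all actives have a fitted effect of over 40% in size; top concentration of the series not given in the record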
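Detergent-free condition (0.00005% Triton X-100) in acetate buffer pH 5.5 with DTT. 1.5 nM enzyme and compound were pre-mixed 15 min, then 2 uM Z-FR-AMC substrate added; reaction progress from fluorescence change between first and third reads (60 s).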
RE007 growth inh: less growth of the S. pombe RE007 Vpr strain. S. pombe RE007 Vpr strain, BacTiter-Glo ATP luminescence, 24 h; control for the full effect not named in the record. Potency, µM (top dose mostly 92.2 µM), without a hit: at the top dose activity change, negative = less growth. actives 0.21% (n = 360,000). AID 651644; active = well fitted falling curve with a large enough effect; inconclusive = small, poorly fitted or top-dose-only effect; inactive = no such curve, though single readings can be large or run the other way;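 also: % is scaled to controls: 0 for no effect and ±100 for the full control effect; nearly all actives have a fitted effect of over 50% in size; the assay follows cell death caused by Vpr and the record does not say whether a fall means rescue or toxicity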
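Fission yeast strain RE007, carrying one chromosomally integrated HIV-1 vpr copy, was seeded at OD 0.01 in PMG+AL medium with 23 nL pinned compound. After 24 h at 30 °C and 99% humidity, viability was read by BacTiter-Glo luminescence.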
2A StopGo: FMDV 2A StopGo reporter, luciferase signal. human cells with a luciferase reporter of 2A StopGo recoding; control for the full effect not named in the record. Potency, µM (highest dose often 57.9 µM), for the others: at the top dose signal change, negative = less light. actives 1.2% (n = 410,000). AID 1159524; active = well fitted falling curve with a large enough effect; inconclusive = small, poorly fitted or top-dose-only effect; inactive = no such curve, though single readings can be large or run the other way; tested in HEK293T cells; also: % is scaled to controls: 0 for no effect and ±100 for the full control effect; nearly all actives have a fitted effect of over 45% in size; luciferase light after 4 h
LASV entry inh: blocks Lassa virus binding to or entry into cells; Lassa virus pseudotype entry inhibition, cell reporter; control for the full effect not named in the record; Potency, µM (highest dose often 37.9 µM), inactives show at the highest dose activity change, negative = inhibition, most hits filed as inhibitors; actives 1.2% (n = 300,000); active means well fitted inhibition curve with a large enough effect; inconclusive means small, poorly fitted or top-dose-only effect, or effect the other way; inactive means flat fitted curve, though single readings scatter; tested in HEK293 cells; also: % is scaled to controls: 0 for no effect and ±100 for the full control effect; nearly all actives have a fitted effect of over 50% in size; luciferase read-out
Numbers without * were called inactive; ? = inconclusive; . = no result given; [ ] = another dose, or the depositor's remark. Unless noted, calls follow the shape of the dose curve; as a rule, active = well fitted curve in the direction sought with a large enough effect; inconclusive = small, poorly fitted or top-dose-only effect, or another doubt; inactive = no such curve, though single readings can be large; an effect the other way counts as inactive or inconclusive. Potency is read from the fitted curve at half-maximal effect.

The line under a structure holds: MARV entry inh, Cruzain inh Det, SARS PLP yeast, NS1 function inh, Cruzain noTriton, RE007 growth inh, 2A StopGo, LASV entry inh
- COc1ccccc1N1CCN(S(=O)(=O)Cc2ccccc2Cl)CC1
 : ?, -4.0%, ., -62%, 0%, 5%, ., -17%
- O=C(c1ccc([N+](=O)[O-])cc1)c1cc2ccc(O)cc2oc1=O
 : ., ., 2%, 5%, ., -12%, -1%, .
- CC(=O)Cn1cnc2c(cnn2-c2ccccc2)c1=O
 : ., ., -4%, -4%, ., 9%, 51%[activator], .
- CCOc1ccc(C(=O)c2ccc(OCC)c(N)c2)cc1N
 : -27%, -6.2%, -4%, ?, 5%, 14%, 54%[activator], 7%
- O=C(Nc1ccc(N=Nc2ccccc2)cc1)c1cccc(Cl)c1
 : 28%, 0.0%, -2%, 2%, ?, -13%, -4%, -24%[14.3 µM]
- CN(CCOc1ccccc1)C(=O)C1CCN(C(=O)c2ccc(Cl)cc2)CC1
 : 2%, ., 11%, -1%, ., 10%, 6%, -1%
- O=C(CSc1nnnn1-c1cccc2c1CCCC2)N1CCCC1
 : -18%, 3.0%, 19%, -13%, 14%, -19%, -21%, -12%
- Cc1ccccc1C(=O)NN1CC(C(=O)OCc2ccc(Cl)c(Cl)c2)CC1=O (stereo not drawn)
 : ., ., -2%, -66%, ., 9%, 1%, .
- Cc1cc(C)n(-c2ccc(C(=O)Nc3ccc(N4CCOCC4)cc3)cc2)n1
 : 2%, -0.9%, 2%, 7%, 3%, 4%, 4%, 4%
- CCOc1ccccc1N1CC(c2nc3ccccc3n2CCCOc2ccccc2OC)CC1=O (stereo not drawn)
 : -12%[46.1 µM], -9.1%, ., ., ?, ., -18%, ?
- Cc1cc2nccc(-c3ccccn3)n2n1
 : 2%, ., 0%, ., ., 0%, -1%, 2%
- COc1ccc(C(=O)NC2CCCc3c2cnn3-c2cccc(C)c2C)c(OC)n1 (stereo not drawn)
 : 0.71µM*, ., -15%, -83%, ., 11%, 18µM*, ?
- O=C(CN1CCN(Cc2ccc3c(c2)OCO3)CC1)Nc1ccc2[nH]c(=O)[nH]c2c1
 : ?, ., 24%, ., ., -13%, -8%, -4%
- CCn1ccnc1CNC(=O)CC1C(=O)NCCN1Cc1ccc(F)cc1Cl (stereo not drawn)
 : ., ., 0%, 0%, ., 3%, 0%, .
- Cc1ccc(C)c(NC(=O)CSc2nc(-c3ccccc3)cc(=O)[nH]2)c1
 : ., 0.4%, ., ., ?, ., -12%, 15%[46.1 µM]
- CN(C)CCNC(=O)c1ccccc1
 : ?, 4.9%, 1%, 1%, -10%, -1%, -18%, -10%
- Cc1ccc(C(=O)NC(NC(=O)c2ccc(C)cc2)C(Cl)Cl)cc1
 : -30%, -0.7%, 3%, 7%, ?, 30%, -6%, ?
- CCN1CCc2c(C#N)c(N3CCCCC3)nc(NCc3ccccc3)c2C1
 : ?, -12%, ., -12%, 1%, 2%, -9%, -29%
- Cc1cc(C)nc(SCC(=O)NC(=O)c2ccccc2O)n1
 : 14%, ., -2%, ., ., 15%, -7%, -3%
- O=C1CSC(c2cccc(F)c2)N1c1ccc(O)cc1 (stereo not drawn)
 : 1%, -3.4%, -1%, -4%, 5%, -7%, ., 12%
- CCCCn1nc(C(=O)Nc2cc(S(=O)(=O)N(C)C)ccc2C)c2ccccc2c1=O
 : ., ., 2%, -2%, ., 20%, -20%, .
- O=C1c2ccsc2SCCN1Cc1c(F)cccc1Cl
 : ., ., 2%, -5%, ., -19%, 22%, .
- CCCC(NS(=O)(=O)c1ccc(OC)cc1)C(=O)O (stereo not drawn)
 : -8%, 0.0%, -5%, 0%, 5%, 3%, 5%, ?
- CC(=O)Nc1ccc(NC(=O)CCc2nc3ccccc3c(=O)[nH]2)cc1
 : -21%[46.1 µM], ., 3%, 6%, ., 8%, -11%, -4%[46.1 µM]
- COc1ccc(-c2csc(Nc3cc(C)ccn3)n2)cc1OC
 : ?, ., -26%, -27%, ., -7%, -55%, -19%
- O=C(CN1CCC(c2nc3ccccc3s2)CC1)N1CCCCC1
 : ., ., 1%, ?, ., -2%, -2%, .
- O=C(O)C1CCCN1c1ncnc2c1oc1ccccc12 (stereo not drawn)
 : 0%, -0.7%, 0%, -6%, -10%, -6%, 53%[activator], 7%
- Cc1cccc(NC2(C(F)(F)F)N=C(c3ccccc3)NC2=O)n1 (stereo not drawn)
 : -9%, 2.8%, 5%, -24%, 5%, 4%, 13%, 19%
- COC(=O)c1c(-n2c(C)cc(C=O)c2C)sc2c1CCCC2
 : -15%, 4.2%, -19%, -3%, 7.9µM*, 11%, ., -7%
- COc1cc(S(=O)(=O)N2CCOCC2)ccc1NC(=O)COC(=O)/C=C/c1cc(OC)c(OC)c(OC)c1
 : -4%, ., -4%, ., ., 2%, -11%, -8%

Part of the list above in order of molecular weight, ascending:
The line under a structure holds: MARV entry inh, Cruzain inh Det, SARS PLP yeast, NS1 function inh, Cruzain noTriton, RE007 growth inh, 2A StopGo, LASV entry inh
- Cc1cc2nccc(-c3ccccn3)n2n1
 : 2%, ., 0%, ., ., 0%, -1%, 2%
- CC(=O)Nc1ccc(NC(=O)CCc2nc3ccccc3c(=O)[nH]2)cc1
 : -21%[46.1 µM], ., 3%, 6%, ., 8%, -11%, -4%[46.1 µM]
- Cc1ccc(C(=O)NC(NC(=O)c2ccc(C)cc2)C(Cl)Cl)cc1
 : -30%, -0.7%, 3%, 7%, ?, 30%, -6%, ?
- Cc1cc(C)n(-c2ccc(C(=O)Nc3ccc(N4CCOCC4)cc3)cc2)n1
 : 2%, -0.9%, 2%, 7%, 3%, 4%, 4%, 4%
- COc1ccc(C(=O)NC2CCCc3c2cnn3-c2cccc(C)c2C)c(OC)n1 (stereo not drawn)
 : 0.71µM*, ., -15%, -83%, ., 11%, 18µM*, ?
- CCn1ccnc1CNC(=O)CC1C(=O)NCCN1Cc1ccc(F)cc1Cl (stereo not drawn)
 : ., ., 0%, 0%, ., 3%, 0%, .
- Cc1ccccc1C(=O)NN1CC(C(=O)OCc2ccc(Cl)c(Cl)c2)CC1=O (stereo not drawn)
 : ., ., -2%, -66%, ., 9%, 1%, .

The listing picks up, starting two compounds before the break.
The line under a structure holds: MARV entry inh, Cruzain inh Det, SARS PLP yeast, NS1 function inh, Cruzain noTriton, RE007 growth inh, 2A StopGo, LASV entry inh
- COC(=O)c1c(-n2c(C)cc(C=O)c2C)sc2c1CCCC2
 : -15%, 4.2%, -19%, -3%, 7.9µM*, 11%, ., -7%
- COc1cc(S(=O)(=O)N2CCOCC2)ccc1NC(=O)COC(=O)/C=C/c1cc(OC)c(OC)c(OC)c1
 : -4%, ., -4%, ., ., 2%, -11%, -8%
- Cn1c(=O)c2c(ncn2CC(O)CNc2cccc(Cl)c2)n(C)c1=O (stereo not drawn)
 : -25%, ., -1%, 3%, ., 2%, -30%, -1%
- O=C(c1cccc(C(F)(F)F)c1)C1CCCN(Cc2ccccc2O)C1 (stereo not drawn)
 : -12%[46.1 µM], ., 0%, -5%, ., -8%, -11%, -1%
- CCn1ccnc1CN(C)Cc1cn(-c2ccc(C)cc2)nc1-c1ccc(F)cc1
 : ., ., -1%, 0%, ., -1%, -1%, .
- Cn1c(=O)cc(OCCCC(=O)N2CCN(c3ccccc3)CC2)c2ccccc21
 : ?, 8.6%, 1%, -4%, ?, 19%, ?, 0%
- CC1(C)Cc2cccc(OCC(=O)NCCc3ccccc3)c2O1
 : ?, ., -14%, ., ., -4%, 7%, 6%
- O=C(CCN1C(=O)/C(=C\C=C\c2ccccc2)SC1=S)Nc1ccccc1C(=O)O
 : ., ., -2%, 11%, ., 11%, 20%, .
- O=C(NNC(=O)c1ccc(Cl)c(Cl)c1)c1ccncc1
 : 5%[46.1 µM], ., ., ., ., 24%, 19%, 4%
- COc1ccc(-c2cc(C(=O)N3CCOCC3)c3ccccc3n2)cc1OC
 : 3%, ., -2%, ., ., -2%, -10%, 5%[46.1 µM]
- COc1ccc(-c2cc(C(F)(F)F)nc(S(=O)(=O)CCCC(=O)Nc3ccccc3C(F)(F)F)n2)cc1OC
 : -19%[46.1 µM], -1.8%, ., ., ?, ., 22µM*, 0%[46.1 µM]
- Cc1cc2c(c(=O)n1Cc1cccnc1)C(Cc1ccccc1)C(C#N)=C(N)O2 (stereo not drawn)
 : 2%, 0.9%, 12%, -2%, -2%, -13%, 0%, 6%
- O=[N+]([O-])c1cc(-c2n(-c3ccccn3)c3ccccc3[n+]2-c2ccccn2)ccc1Cl
 : ?, ., -1%, ., ., -12%, -26%, -5%
- CC(=O)Nc1ccc2nc(NC(=O)COc3ccc([N+](=O)[O-])cc3)sc2c1
 : -12%[46.1 µM], ., 0%, 4%, ., 4%, 1%, 4%
- Cc1ccc2nc(C)cc(OCC(=O)O)c2c1
 : 8%, 1.7%, -5%, 2%, -6%, -9%, 2%, 27%
- COc1ccc(-c2cc3ccc(OCC(N)=O)cc3oc2=O)cc1OC
 : ., ., 8%, 11%, ., 1%, 5%, .
- CC(=O)Nc1ccc(CN2CCc3c([nH]c4ccccc34)C2c2ccccn2)cc1 (stereo not drawn)
 : ?, ., 0%, -1%, ., -14%, -18%, -23%[46.1 µM]
- COc1ccc(/C=N/NC(=O)C2C(C=C(Cl)Cl)C2(C)C)c(OC)c1 (stereo not drawn)
 : 2%[46.1 µM], ., 0%, 4%, ., -14%, -26%, 14%[46.1 µM]
- CCn1cc(S(=O)(=O)CC(=O)Nc2cccc(C)c2)c2ccccc21
 : ., ., 1%, 0%, ., -6%, 6%, .
- CCC(C)(C)NC(=O)c1ccc(Br)o1
 : 4%, -1.8%, -9%, -3%, 3%, 2%, -10%, 0%
- COc1ccc(-c2ccc(CNCCCN3CCOCC3)o2)cc1Cl
 : ?, ., 0%, 0%, ., 1%, 9%, -22%[46.1 µM]
- COc1ccc(CCN2CC(C(=O)NCc3cnn(C(C)C)c3)CCC2=O)cc1 (stereo not drawn)
 : 11%, ., -8%, 19%, ., -3%, -19%, 15%
- CC(NC(=O)CCNC(=O)c1ccc(Br)cc1)c1ccc(S(N)(=O)=O)cc1 (stereo not drawn)
 : 3%[46.1 µM], ., 1%, ., ., 13%, -14%, 8%
